# ID4 SMM – ID4 (human) binding; P47928; small molecule microarray, Flag-ID4 binding, fluorescence F/B; calls only; 1.2% of 31,000 active;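 active means spot signal over background at p below 0.07 in all four prints; compounds were printed on slides so no solution concentration is given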;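 further: a binder raises fluorescence above local background on the spot; about 2 pmol printed per array spot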
# Target sequence (P47928 whole entry, looked up): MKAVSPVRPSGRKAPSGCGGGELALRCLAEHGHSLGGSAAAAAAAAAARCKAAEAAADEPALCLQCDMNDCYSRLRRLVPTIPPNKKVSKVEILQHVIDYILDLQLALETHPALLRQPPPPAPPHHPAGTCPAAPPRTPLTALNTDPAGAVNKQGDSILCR
# Calls only; i = inactive. A portion of the library; count on the stated rates, not on these rows.
SMILES,ID4 SMM
CNC[C@@H]1Oc2ccc(N(C)C)cc2C(=O)N([C@H](C)CO)C[C@@H]1C,i
CS(=O)(=O)CCC(C(=O)N1CCOCC1)N1C(=O)c2cc(Cl)c(Cl)cc2C1=O (stereo not drawn),i
CCCC(=O)Nc1ccc2c(c1)C(=O)N(C)C[C@@H](OC)[C@H](C)CN(CCc1ccccc1)[C@H](C)CO2,i
C[C@@H]1CN([C@@H](C)CO)C(=O)c2c(c3ccccc3n2C)-c2ccccc2CO[C@@H]1CN(C)C(=O)c1ccncc1,i
CCc1cccc(C)c1NC(=O)CSc1nnc(-c2ccccc2)o1,i
C[C@@H]1CN([C@@H](C)CO)C(=O)c2cc(C#Cc3ccccc3)cnc2O[C@H]1CN(C)C(=O)CCN1CCCCC1,i
COc1ccc(-c2nc(SCC(=O)Nc3cccc(Br)c3)n[nH]2)cc1,i
C[C@@H]1CN([C@@H](C)CO)S(=O)(=O)c2ccc(C#C[C@@H](C)O)cc2O[C@H]1CN(C)C(=O)CN(C)C,i
Cc1ccc(-n2ncc(C(=O)NCCN3CCOCC3)c2NC(=O)c2ccco2)cc1C,i
COC(=O)c1cc(NC(=O)COc2ccc(Cl)cc2C)cc(C(=O)OC)c1,i
CC(C)CC#Cc1cnc2c(c1)C(=O)N([C@@H](C)CO)C[C@@H](C)[C@@H](CN(C)Cc1ccccc1)O2,i
COc1cc(NC(=O)C2CCCO2)c(C(=O)O)cc1OC (stereo not drawn),i
CC(C(=O)Nc1cccc2ccccc12)N(c1ccc(Cl)cc1)S(C)(=O)=O (stereo not drawn),i
Cc1ccc2cccc(OCc3nnc(SCC(=O)O)n3C)c2n1,i
O=C(CN1C(=O)c2ccccc2C1=O)Oc1c(-c2ccccc2)oc2ccccc2c1=O,i
C[C@@H]1CN([C@H](C)CO)S(=O)(=O)c2ccc(C3=CCCC3)cc2O[C@@H]1CN(C)Cc1ccccc1,i
CCn1c(SCC(=O)N2CCN(c3ccccc3)CC2)nnc1-c1cc2cc(Cl)ccc2o1,i
C[C@H]1CN([C@@H](C)CO)C(=O)c2cc(C#CCc3ccccc3)cnc2O[C@@H]1CN(C)Cc1cccnc1,i
CN1C(=O)C2C=CC=CC2N=C1SCc1ccccc1F (stereo not drawn),i
Cn1cnc(S(=O)(=O)N[C@@H]2CC[C@H](CC(=O)N3CCN(c4ccccc4)CC3)O[C@H]2CO)c1,i
CCNC(=O)C[C@H]1CC[C@@H](NC(=O)C2CC2)[C@H](CO)O1,i
O=C1C(=O)N(CCN2CCOCC2)C(c2ccc(Cl)cc2)C1C(=O)c1ccco1 (stereo not drawn),i
Cn1c(SCC(=O)Nc2ccccc2C(F)(F)F)nnc1-c1cccc(N)c1,i
COc1ccccc1N1CCN(CCCCN2C(=O)c3ccccc3C2=O)CC1,i
COc1ccc(Cl)cc1NC(=O)CN(c1cc([N+](=O)[O-])ccc1C)S(C)(=O)=O,i
CCc1cc2c3c(c(=O)oc2cc1OCc1cc(C(=O)O)oc1C)CCCC3,i
COc1ccc(-c2nc(SCC(=O)Nc3cccc(C(F)(F)F)c3)n[nH]2)cc1,i
Cc1ccc(-c2nc3cc(Cl)cc(Cl)c3o2)cc1NC(=O)COc1ccc([N+](=O)[O-])cc1,i
COc1ccccc1CNCc1ccc(OC)c(OC)c1OC,i
COc1ccc(OCC(=O)Nc2c(C(=O)c3ccc(C)c(F)c3)oc3ccccc23)cc1,i
CCCC#Cc1cnc2c(c1)C(=O)N([C@@H](C)CO)C[C@@H](C)[C@@H](CN(C)C(=O)Nc1cc(F)ccc1F)O2,i
Cc1ccc(-c2cnc3c(c2)C(=O)N([C@@H](C)CO)C[C@H](C)[C@H](CN(C)C(=O)c2ccccc2)O3)cc1,i
CCOC(=O)c1c(NC(=O)COc2ccccc2F)sc2c1CCCC2,i
OCc1nc2ccccc2n1CCOc1ccc(Cl)cc1,i
COc1ccccc1Nc1nc(N)nc(CSc2nc3ccccc3s2)n1,i
O=C(c1cc([N+](=O)[O-])ccc1NCc1cccnc1)N1CCOCC1,i
Cc1nnc(SCC(=O)Nc2cc(Cl)ccc2C)s1,i
CC(=O)c1c(C)nn(CC(O)COc2ccc3cc(Br)ccc3c2)c1C (stereo not drawn),i
COc1ccc(NC(=O)CNS(=O)(=O)c2c(C)cc(C)cc2C)c(OC)c1,i
C/C(=C\C=C\C(C)C)CC/C=C(\C)CCOc1c(O)cc2c(c1O)CNC2=O,i

# The final 6 compounds of the section above come first, to join the parts:
SMILES,ID4 SMM
COc1ccccc1Nc1nc(N)nc(CSc2nc3ccccc3s2)n1,i
O=C(c1cc([N+](=O)[O-])ccc1NCc1cccnc1)N1CCOCC1,i
Cc1nnc(SCC(=O)Nc2cc(Cl)ccc2C)s1,i
CC(=O)c1c(C)nn(CC(O)COc2ccc3cc(Br)ccc3c2)c1C (stereo not drawn),i
COc1ccc(NC(=O)CNS(=O)(=O)c2c(C)cc(C)cc2C)c(OC)c1,i
C/C(=C\C=C\C(C)C)CC/C=C(\C)CCOc1c(O)cc2c(c1O)CNC2=O,i
Cc1ccn2cc(-c3cccc(NS(=O)(=O)c4cc([N+](=O)[O-])ccc4C)c3)nc2c1,i
CCN(C(=O)CCc1nc(-c2ccccc2F)no1)c1cc(Cl)ccc1OC,i
O=C(C[C@@H]1C=C[C@@H](NC(=O)C2CC2)[C@H](CO)O1)NCc1ccccc1Cl,i
N#Cc1c[nH]c2ccc(NC(=O)/C=C/c3ccc(OC(F)(F)F)cc3)cc12,i
COc1ccc(-c2nnc(SCC(=O)Nc3cccc(C(C)=O)c3)n2-c2ccccc2)cc1,i
C[C@H](CO)N1C[C@H](C)[C@H](CN(C)C(=O)C2CC2)Oc2ncc(C#Cc3cccc(F)c3)cc2C1=O,i
Cc1ccc(NC(=O)CSc2nnc(N)s2)cc1,i
O=C(O)CCC(=O)N(Cc1ccccc1)Cc1cn(-c2ccccc2)nc1-c1cccnc1,i
CC(=O)/C=C\[C@@H]1[C@@]2(C)CCCC(C)(C)C2CC[C@@]1(C)O (stereo partly drawn),i
COc1cccc(CNc2ccc3c(c2)ncn3-c2ccccc2)c1OC,i
O=C(CSc1nc(N2CCCCC2)nc(N2CCCCC2)n1)Nc1ccc([N+](=O)[O-])cc1,i
CCC(=O)N[C@H]1C=C[C@@H](CC(=O)OC)O[C@@H]1CO,i
C[C@H]1CN([C@@H](C)CO)C(=O)c2ccccc2-c2ccccc2CO[C@@H]1CN(C)C(=O)Nc1ccccc1C(F)(F)F,i
COC(=O)c1sccc1NC(=O)Cn1nnc(-c2ccc(C)cc2)n1,i
Cc1ccccc1-c1cnc2c(c1)C(=O)N([C@@H](C)CO)C[C@@H](C)[C@@H](CN(C)Cc1cccnc1)O2,i
COc1ccccc1-c1cnc2c(c1)C(=O)N([C@H](C)CO)C[C@H](C)[C@H](CN(C)Cc1ccncc1)O2,i
COc1ccc(Cl)cc1NC(=O)CN(c1cc(Cl)c(Cl)cc1Cl)S(C)(=O)=O,i
Cn1c(SCc2nc(-c3ccc(Cl)cc3)no2)nnc1-c1ccccc1,i
Cc1cc2ncn(CC(O)COc3ccc4cc(Br)ccc4c3)c2cc1C (stereo not drawn),i
O=C(C[C@H]1CC[C@H](NC(=O)C2CC2)[C@H](CO)O1)Nc1ccccc1,i
CSc1ccccc1NC(=O)CN(c1cccc([N+](=O)[O-])c1)S(C)(=O)=O,i
CNC[C@@H]1Oc2ncc(C#Cc3ccccc3F)cc2C(=O)N([C@H](C)CO)C[C@@H]1C,i
CCn1c(SCC(=O)N2c3ccccc3CCc3ccccc32)nnc1-c1ccco1,i
CN1CCN(C(=O)C[C@H]2CC[C@H](NC(=O)c3ccc4c(c3)OCO4)[C@H](CO)O2)CC1,i
C[C@@H]1CN([C@H](C)CO)C(=O)c2cc(/C=C/c3ccccc3)cnc2O[C@@H]1CN(C)C(=O)Nc1ccc(C(F)(F)F)cc1,i
N#Cc1c(C(F)(F)F)cc(-c2cccs2)nc1SCC(=O)Nc1c(F)cccc1F,i
C=CCn1c(-c2ccccc2)nn(CCC#N)c1=S,i
COc1ccc(CNC(=O)C[C@@H]2C[C@@H]3c4cc(NC(=O)CC5CC5)ccc4O[C@@H]3[C@@H](CO)O2)cc1,i
Cc1cc2ncn(CC(O)COc3ccc(N)cc3)c2cc1C (stereo not drawn),i
CCC1CCc2nc(SCC(=O)Nc3cccc(OC)c3)c(C#N)c(C(F)(F)F)c2C1 (stereo not drawn),i
O=C(O)COc1ccc(S(=O)(=O)NC2CCCCC2)cc1Cl,i
COC(=O)c1c(NC(=S)Nc2cc(OC)c(Cl)cc2OC)sc2c1CCCCC2,i
Cc1ccc([N+](=O)[O-])cc1NC(=O)CN(C1CCCCC1)S(=O)(=O)c1ccc(Cl)cc1,i
CCNC(=O)C[C@H]1CC[C@H](NC(=O)C2CCC2)[C@H](CO)O1,i
COC(=O)c1cccc(NC(=O)CSc2nc(-c3ccc(C)cc3)cc(C(F)(F)F)n2)c1,i
CC(NS(=O)(=O)c1ccc(F)cc1)C(=O)Nc1ccc(Oc2ccccc2)cc1 (stereo not drawn),i
CCOc1ccc(C(=O)Nc2ccc(OCC(=O)O)cc2)cc1,i
Cc1cc(N(CC(=O)Nc2ccccc2Cl)S(C)(=O)=O)ccc1Br,i
C[C@H]1CN([C@@H](C)CO)C(=O)c2cc(C#CCC3CCCC3)cnc2O[C@@H]1CN(C)C(=O)CN(C)C,i
O=C(Cn1nnc2ccccc21)NCCN1CCCC1,i

# 4 entries from above, field by field:
CCOc1ccc(C(=O)Nc2ccc(OCC(=O)O)cc2)cc1
  ID4 SMM = i

Cc1cc(N(CC(=O)Nc2ccccc2Cl)S(C)(=O)=O)ccc1Br
  ID4 SMM = i

C[C@H]1CN([C@@H](C)CO)C(=O)c2cc(C#CCC3CCCC3)cnc2O[C@@H]1CN(C)C(=O)CN(C)C
  ID4 SMM = i

O=C(Cn1nnc2ccccc21)NCCN1CCCC1
  ID4 SMM = i

# Following part
SMILES,ID4 SMM
CNC[C@H]1Oc2cc(C#Cc3ccccc3F)ccc2S(=O)(=O)N([C@H](C)CO)C[C@@H]1C,i
COc1ccc(C)cc1S(=O)(=O)N(C)CC(=O)N1CCCCC1,i
COc1cccc(S(=O)(=O)Nc2ccc3c(c2)[C@@H]2C[C@H](CC(=O)NCC(F)(F)F)O[C@@H](CO)[C@@H]2O3)c1,i
[N-]=[N+]=NCc1ccccc1C[C@]1(C(N)=O)N=C(c2ccc(OCCCO)cc2)O[C@H]1c1ccccc1,i
COc1ccc([Si](C)(C)[C@H]2[C@H](CCn3cc(CCO)nn3)O[C@@]3(C(=O)N(c4ccccc4)c4ccccc43)[C@@H]2C)cc1,i
C[C@H]1CN([C@@H](C)CO)C(=O)c2cc(C#CCC3CCCC3)cnc2O[C@H]1CN(C)Cc1ccccn1,i
CC1OC(OC2C(OC3C(O[C@H]4CC[C@@]5(C)C(CC[C@]6(C)C5CC=C5[C@@H]7CC(C)(C)C[C@@H](O)[C@]7(C)CC[C@]56C)C4(C)C)OC(C(=O)O)C(O)C3O)OC(CO)C(O)C2O)C(O)C(O)C1O (stereo partly drawn),i
COc1ccc(C(=O)CSc2n[nH]c(-c3ccccc3)n2)cc1OC,i
Cc1cc(O)cc(C)c1Cl,i
Cc1ccc2cc(S(=O)(=O)NCc3ccco3)ccc2c1,i
CC(=O)N(C)C[C@@H]1Oc2ncc(-c3cccc(F)c3)cc2C(=O)N([C@H](C)CO)C[C@H]1C,i
Cc1ccc(C)c(NC(=O)CN(c2cccc(F)c2)S(C)(=O)=O)c1,i
O=C(N[C@@H]1C=C[C@H](CC(=O)N2CCC(Cc3ccccc3)CC2)O[C@@H]1CO)c1cnccn1,i
CCc1c(C)nc(SCC(=O)Nc2ccc(Cl)cc2)[nH]c1=O,i
CCC(=O)N[C@@H]1CC[C@H](CC(=O)NCC2CCCCC2)O[C@H]1CO,i
C[C@@H]1CN([C@H](C)CO)C(=O)c2cc(C#CC3CC3)cnc2O[C@H]1CN(C)C(=O)c1ccccc1,i
COc1cccc(N(CC(=O)Nc2cccc(Cl)c2C)S(C)(=O)=O)c1,i
COc1ccc(N2C(=O)CC(SCC(=O)Nc3cccc(Br)c3)C2=O)cc1 (stereo not drawn),i
CCCC#Cc1cnc2c(c1)C(=O)N([C@@H](C)CO)C[C@@H](C)[C@H](CN(C)CCC)O2,i
COc1ccc(C#Cc2ccc3c(c2)O[C@H](CN(C)C)[C@H](C)CN([C@H](C)CO)S3(=O)=O)cc1,i
O=C(Nc1ccccc1[N+](=O)[O-])c1cccc(S(=O)(=O)Nc2ccc(I)cc2)c1,i
Cc1c(CC(=O)O)c(=O)oc2c(C)c(OC(C)C(=O)O)ccc12 (stereo not drawn),i
S=C(Nc1cccc(Cl)c1)Nc1cc(-c2ccc(Cl)cc2)[nH]n1,i
C[C@@H]1CN([C@@H](C)CO)C(=O)c2cc(-c3ccc(F)cc3)cnc2O[C@@H]1CN(C)CC1CC1,i
COc1ccc(Cl)cc1NC(=O)CSc1nnc(-c2ccccc2F)n1C,i
O=C(C[C@H]1C[C@H]2c3cc(NC(=O)c4cccnc4)ccc3O[C@H]2[C@@H](CO)O1)NCc1ccccc1F,i
Cc1ccc(S(=O)(=O)NC(C)C(=O)Nc2ccccc2F)cc1 (stereo not drawn),i
COc1ccccc1NC(=O)c1c(NC(=O)c2cccnc2)sc(C)c1C,i
COc1ccc(NC(=O)c2ccccc2NC(=O)COc2ccc(Cl)cc2)cc1,i
Cc1ccc(-c2cc(C(F)(F)F)n3ncc(C(=O)NCc4ccco4)c3n2)cc1,i
O=C(NCCCN1CCOCC1)c1cnn2c(C(F)(F)F)cc(-c3ccccc3)nc12,i

# Screening data (PubChem BioAssay)
